Compound activity: PubChem, National Center for Advancing Translational Sciences (NCATS)
TRPML1 ag: human mucolipin-1 channel agonism. TRPML1-expressing cells, Ca2+ dye fluorescence, FDSS; host cell line not named in the record; reference of the full effect not given here. 410,000 compounds, 0.12% hits. Q9GZU1. AID 624414. activation, % (concentration not given with the values); in the data active = activation above about 50%; inconclusive = about 30% to 50%; inactive = below about 30%; also: 0% is about no effect; the text of the record puts the active cut at 80%
Target sequence (Q9GZU1 whole entry, looked up): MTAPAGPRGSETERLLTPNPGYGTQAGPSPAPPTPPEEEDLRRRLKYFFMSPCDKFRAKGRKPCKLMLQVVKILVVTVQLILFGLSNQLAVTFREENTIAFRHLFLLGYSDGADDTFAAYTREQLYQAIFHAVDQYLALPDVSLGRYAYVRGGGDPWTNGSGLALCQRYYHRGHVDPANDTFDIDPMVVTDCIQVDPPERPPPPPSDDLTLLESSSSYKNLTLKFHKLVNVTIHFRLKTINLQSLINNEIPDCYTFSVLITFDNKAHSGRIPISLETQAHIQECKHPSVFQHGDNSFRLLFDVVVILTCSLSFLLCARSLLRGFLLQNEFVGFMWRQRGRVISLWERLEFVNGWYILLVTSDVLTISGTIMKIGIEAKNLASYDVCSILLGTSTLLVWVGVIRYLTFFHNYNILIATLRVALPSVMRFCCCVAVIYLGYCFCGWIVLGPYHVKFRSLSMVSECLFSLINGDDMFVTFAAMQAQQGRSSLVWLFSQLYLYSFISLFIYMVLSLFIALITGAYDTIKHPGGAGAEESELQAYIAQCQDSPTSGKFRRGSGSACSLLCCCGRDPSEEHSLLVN
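Cells: TRPML1-DL, 1X Tet inducer, ~16 h at 37 degrees C/5% CO2. Dye: ABD Ca8 no-wash + quencher, 45-90 min RT. Read: 10 s baseline, compound add, 110 s agonist phase; 54-4 EC80 (4uM final), 110 s antagonist phase.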
CtBP-E1A blk: CtBP/E1A binding inhibition. AID 651724. activity change, % (test concentration not listed). AlphaScreen GST-E1A/His-CtBP binding, 1536-well; stronger effect = lower value; control for the full effect not named in the record. 340,000 compounds, 0.49% hits; in the data active means activity change below about -65%; inconclusive means about -30% to -65%; inactive means above about -30%; also: % is scaled to controls: 0 for no effect and ±100 for the full control effect
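GST-E1A and His-tagged CtBP (125 nM each as 5X stock) were preincubated with pin-transferred compound for 2 h at 37 °C in the dark, then glutathione donor and nickel acceptor beads were added for 1 h before AlphaScreen reading.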
Six1-Eya2 blk: blocks human Six1 binding to Eya2; Q15475+O00167; AlphaScreen GST-Six1/His-Eya2 binding, biochemical; stronger effect = lower value; control for the full effect not named in the record; activity change, % (no concentration beside the values); 360,000 compounds, 0.56% hits; in the data active = activity change below about -65%; inconclusive = about -30% to -65%; inactive = above about -30%; also: % is scaled to controls: 0 for no effect and ±100 for the full control effect
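Compounds are tested against tagged Six1 and Eya2 proteins bridged by glutathione donor and nickel acceptor beads; after a one-hour incubation at 37 °C without light, AlphaScreen emission is recorded.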
D2 potentiator: human D2 receptor positive allosteric modulation; P14416; DiscoveRx D2 beta-arrestin cells, luminescence, 90 min; 100% = 57 uM dopamine signal; potentiation, % (test concentration not listed); 360,000 compounds, 0.23% hits; AID 624464; active = potentiation of 50% or more; inconclusive = 30% to 50%; inactive = 30% or less;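 also: compound concentration not given in the record; tested on top of an EC20 dose of dopamine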
Target sequence (P14416 whole entry, looked up): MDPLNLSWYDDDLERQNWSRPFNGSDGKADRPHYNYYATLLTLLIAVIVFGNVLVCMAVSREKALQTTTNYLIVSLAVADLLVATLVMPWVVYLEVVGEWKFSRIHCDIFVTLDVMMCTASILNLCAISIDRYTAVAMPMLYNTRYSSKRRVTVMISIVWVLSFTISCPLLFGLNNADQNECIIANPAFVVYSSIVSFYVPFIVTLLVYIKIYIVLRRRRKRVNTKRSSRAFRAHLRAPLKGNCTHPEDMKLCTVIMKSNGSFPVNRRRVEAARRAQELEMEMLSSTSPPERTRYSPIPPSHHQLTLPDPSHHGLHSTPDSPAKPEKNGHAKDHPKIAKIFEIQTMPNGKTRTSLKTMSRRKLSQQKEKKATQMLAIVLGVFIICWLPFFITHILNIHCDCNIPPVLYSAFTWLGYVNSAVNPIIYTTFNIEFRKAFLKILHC
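D2 cells co-treated with compound plus 50 nM dopamine (EC20) for 90 min at 37 deg C to detect potentiation. Beta-arrestin recruitment was read as enzyme-fragment luminescence after 1 h at ambient temperature. Full response was set by 57 uM dopamine.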
PINK1 expr mod: PINK1 expression modulation. Potency, µM (highest dose often 76.6 µM), for the others: top-dose activation (PINK1 increase), hits mostly activators. 410,000 compounds, 0.2% hits. PINK1 immunofluorescence, high-content cytometry, 24 h. AID 624263; active = well fitted activation curve with a large enough effect; inconclusive = small, poorly fitted or top-dose-only effect; inactive = flat fitted curve, though single readings scatter; cell line not stated here;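 also: potency is read from the fitted curve at half-maximal effect; % of control where 0% means no effect; nearly all actives have a fitted effect of over 65% in size; a mitochondrial uncoupler was the plate control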
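Cells are seeded, rested 12 hours, then given compound at five concentrations or DMSO for 24 hours. After fixation, blocking and antibody staining, PINK1 amount and mitochondrial localization are scored; CCCP serves as control.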
D2 ag: activates the human D2 dopamine receptor; activation, % (no concentration beside the values); AID 624465; 360,000 compounds, 0.084% hits; DiscoveRx PathHunter D2 beta-arrestin, luminescence, 90 min; 100% = 57 uM dopamine signal; in the data active = activation above about 40%; inconclusive = about 15% to 40%; inactive = below about 15%; also: compound concentration not given in the record; the text of the record calls up to 30% inactive
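Agonist mode: compounds alone added to overnight-plated D2 PathHunter cells for 90 min at 37 C, with 57 uM final dopamine (EC100) defining full response. Beta-arrestin recruitment detected by chemiluminescent reagent, read after 1 h at ambient temperature.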
Starred values were filed as active, the others as inactive; u = inconclusive; x = not tested or not shown; & = joins results of further samples; [ ] = another dose, or the depositor's remark.

SMILES	TRPML1 ag	CtBP-E1A blk	Six1-Eya2 blk	D2 potentiator	PINK1 expr mod	D2 ag
CCOc1ccc(CNC(=O)CCCc2cn(C)c3ccccc23)cc1	-0.4	3.0	-17.4	-3.6	-0.9%	0.6
N/C(=N\OC(=O)CC1CCCCC1)c1ccccc1	0.7	26.2	24.9	-6.2	1.4%	0.4
CCOC(=O)c1cnc(-n2cc(C)cn2)nc1Nc1ccccc1OCC	-0.7	6.2	2.3	2.1	-3.2%	0.9
Cc1ccc2[nH]c3nc(SCC#N)nnc3c2c1	0.1	4.5	-0.7	-2.9	10.2%	-2.3
O=C(c1cc(S(=O)(=O)N2CCOCC2)ccc1F)N(CCc1ccccc1)Cc1ccccc1	2.5	-14.0	-16.8	-9.3	1.2%	-0.5
CCCNC(=O)COC(=O)/C=C/c1ccc2c(c1)OCO2	0.1	10.0	1.8	-16.3	-1.5%	-0.1
CCOc1ccc(NC2CCCCC2NS(=O)(=O)c2ccccc2)cc1 (configuration not stated)	0.4	-26.3	u	-10.7	-0.7%	-0.8
CC(C)CC(N)c1csc(Nc2ccc(C(=O)NCCO)cc2)n1 (configuration not stated)	0.0	-2.1	-8.1	-3.8	2.0%	-3.3
O=C(NC(C(=O)N/N=C/c1cc([N+](=O)[O-])ccc1O)c1n[nH]c(=O)c2ccccc12)c1ccccc1 (configuration not stated)	0.5	-87.8*	-90.1*	-9.4	0.4%	-1.9
O=C(Nc1ccc(N2CCOCC2)cc1)c1ccccc1SCC(=O)N1CCCC1	-0.6	1.7	4.3	-0.2	1.3%	-0.8
OCCC1CN(Cc2cc(F)ccc2-n2cccn2)CCN1C1CCCC1 (configuration not stated)	-0.2	2.7	1.6	-25.1	-0.7%	-5.0
Cc1ccc(C)c(OCC(O)CNC2CCCC2)c1 (configuration not stated)	-0.2	x	10.1	-55.3	1.1%	-0.8
CCN1C(=O)c2cccc3c(S(=O)(=O)NC(Cc4c[nH]c5ccccc45)C(=O)O)ccc1c23 (configuration not stated)	0.2	-2.7	-5.9	-11.9	3.1%	3.8
O=C(CCc1nc2ccccc2c(=O)[nH]1)NCc1ccco1	-0.5	-14.0	9.6	-6.5	3.0%	-1.2
O=S(=O)(CCNC1CC1)NC1CCCCC1	-0.4	10.4	5.5	-9.4	4.0%	-1.2
COc1ccccc1Oc1ccc2c(c1)C(=O)N(c1ccccc1)C2=O	0.1	6.7	2.4	-9.2	13.0%	-4.3
COc1cccc(C(=O)N/N=C2/SCC(=O)N2CCc2ccc(OC)c(OC)c2)c1	0.4	6.2	-3.0	-4.1	3.4%[38.3 µM]	-0.8
O=c1[nH]cc(S(=O)(=O)N2CCCc3ccccc32)c(=O)[nH]1	1.6	5.4	1.5	-40.6	0.2%	-3.3
CCC(NC(=O)c1cc(COc2cncc(Cl)c2)on1)c1ccc(C)cc1 (configuration not stated)	2.2	8.6	-5.2	-5.3	28.9%	-6.2
OC(COCc1cccs1)CN1CCN(c2cccc(C(F)(F)F)c2)CC1 (configuration not stated)	-0.3	-17.4	-4.6	-27.7	1.9%	-0.2
CN(C)S(=O)(=O)c1cccc(NC(=O)COC(=O)/C=C/c2ccc([N+](=O)[O-])cc2)c1	-1.4	u	-19.5	5.1	-1.1%	5.5
COc1ccc(-c2nsc3c(SCc4ccccc4)ncnc23)cc1	0.0	1.4	2.3	9.5	-0.6%	-0.6
Cc1ccc(-c2nc3c(c(=O)c4ccccc4n3C)c(=O)n2Cc2ccco2)cc1	2.0	-0.6	-9.9	7.6	-0.2%	3.7
CN(C)c1ccc(/C=C(\NC(=O)c2ccccc2)C(=O)NCc2ccncc2)cc1	0.6	-1.1	2.0	-0.8	0.1%	-5.9
CSc1n[nH]c(NC2=CC(=O)CCC2)n1	0.4	3.7	-1.6	1.1	1.2%[38.3 µM]	-2.1

One compound at a time, from the list above:
Profile of O=C(c1cc(S(=O)(=O)N2CCOCC2)ccc1F)N(CCc1ccccc1)Cc1ccccc1 → TRPML1 ag = 2.5; CtBP-E1A blk = -14.0; Six1-Eya2 blk = -16.8; D2 potentiator = -9.3; PINK1 expr mod = 1.2%; D2 ag = -0.5
Profile of O=C(CCc1nc2ccccc2c(=O)[nH]1)NCc1ccco1 → TRPML1 ag = -0.5; CtBP-E1A blk = -14.0; Six1-Eya2 blk = 9.6; D2 potentiator = -6.5; PINK1 expr mod = 3.0%; D2 ag = -1.2

Additional compounds.
SMILES	TRPML1 ag	CtBP-E1A blk	Six1-Eya2 blk	D2 potentiator	PINK1 expr mod	D2 ag
Cc1cccc(NC2(C(F)(F)F)N=C(c3ccccc3)NC2=O)n1 (configuration not stated)	2.5	3.0	0.9	13.5	0.6%[38.3 µM]	-2.0
Cc1ccc(S(=O)(=O)N2CCCOC2CNC(=O)C(=O)NCCC2=CCCCC2)cc1 (configuration not stated)	-0.1	-2.1	2.0	-3.6	1.4%	0.0
CC(=O)CCc1c(C)[nH]c2ccc(NC(C)=O)cc2c1=O	0.6	2.8	-0.9	7.5	1.1%[38.3 µM]	1.0
Cc1cccc(C)c1OCC(=O)NNC(=O)Nc1ccc(Cl)cc1	0.6	2.2	-1.6	-10.6	-3.0%[38.3 µM]	-0.9
CC(C)CNc1ncnc2c1ncn2[C@H]1CN(Cc2ccc3c(c2)OCO3)C[C@@H](CO)O1	-0.7	3.9	-2.1	-2.0	0.9%	-6.5
CCCNC(=O)CSc1nc(Cc2ccccc2)nc2ccccc12	1.6	-1.9	6.7	0.9	-0.8%	-2.0
O=C(CSc1ccccc1C(=O)NCCCN1CCCC1=O)NCc1ccco1	-0.5	7.8	7.5	-4.8	0.1%	-3.1
CCN1/C(=C/c2ccc3cc(C)ccc3[n+]2CC)Sc2ccccc21	u	x	u	-8.8	8.4%	-0.1
O=C(COC(=O)C1(c2ccc(F)cc2)CCCC1)NCc1ccc2c(c1)OCO2	1.6	9.8	3.2	-3.8	-0.3%	-3.1
O=C(CNCC1CCCCC1)Nc1ccccc1N1CCCCC1	2.5	4.0	2.9	-17.4	u	1.1
Cc1ccc(-c2noc(CCCc3ccccc3)n2)cc1	3.3	58.9	99.4	-7.2	3.4%	-3.9
CNC(=O)/C(=C\c1cccc(Oc2ccccc2)c1)NC(=O)c1ccccc1	0.0	-19.6	-7.2	-2.7	-2.3%	-1.6
CC1(C)C(=O)Nc2ccccc2N1C(=O)COC(=O)c1cc([N+](=O)[O-])ccc1N	0.2	-16.7	-10.8	2.5	-0.4%	1.9
Cc1cc(NC(=O)CN2CCCC(C)C2)n(-c2nc3ccccc3s2)n1 (configuration not stated)	1.1	13.2	6.7	-8.0	5.1%	2.0
COCC(C)N=C1NN=C(c2cc(C)n(Cc3ccccc3Cl)c2C)CS1 (configuration not stated)	-0.6	-8.9	-5.4	-4.8	35.5µM*	-5.2
Cc1[nH]c(C(=O)N/N=C/c2ccc(N(C)C)cc2)c(C)c1C(=O)N/N=C/c1ccc(N(C)C)cc1	-0.4	-22.8	u	-3.8	1.6%	0.4
CC(C)NC(=O)C(c1ccc(F)cc1)N(C(=O)CCC(=O)Nc1ccccn1)c1cccc(F)c1 (configuration not stated)	-0.1	-6.0	-3.3	-1.6	1.8%	-2.4
COc1ccc(C2=NOC(C)(c3nnc(Cc4ccccc4)o3)C2)cc1 (configuration not stated)	-0.4	1.1	2.0	-2.0	1.9%	-0.1
O=C(CCNS(=O)(=O)c1ccc(Cl)cc1)N1CCOCC1	0.2	-3.6	1.3	0.3	1.0%	-0.8
COc1ccc(CCC(=O)NC(C)C2CCCO2)cc1 (configuration not stated)	0.1	3.5	-6.0	-17.0	3.4%	-2.2
Cc1ccc(NC(=O)c2cccc(-n3cnnn3)c2)cc1Cl	0.5	-10.3	0.0	-1.9	4.4%	-5.0
COc1ccccc1-c1ccc(C(=O)O)o1	-0.3	14.9	7.2	1.5	-3.6%	-1.4
Cc1nc2ccc(Br)cn2c1NC(C)(C)C	1.7	0.9	-2.2	-20.0	u	-2.9
CC(C)Oc1ccc(N2CC(C(=O)OCC(=O)NCc3ccccc3)CC2=O)cc1 (configuration not stated)	-0.1	-10.7	-4.8	-6.0	x	-1.9
COc1ccc(-c2cn(Cc3ccc(C(=O)c4ccccc4)cc3)nn2)cc1	3.8&0.5	-26.2	-11.8	-0.5	6.9%	1.3

Continuation:
SMILES	TRPML1 ag	CtBP-E1A blk	Six1-Eya2 blk	D2 potentiator	PINK1 expr mod	D2 ag
O=C(CCc1ccccc1)NC1CCS(=O)(=O)C1 (configuration not stated)	1.7	-0.5	15.7	-16.8	-0.8%	1.3
CCOC(=O)c1[nH]c(C)c(CN(CCc2ccccc2)S(C)(=O)=O)c1C	0.3	-5.8	-8.4	0.2	-0.3%	1.6
O=C(CCc1cn(Cc2ccc(F)cc2)c2ccccc12)N1CCOCC1	-0.4	-1.1	-4.8	-8.3	-0.3%	-3.5
Cc1ccc(C2=NN=C(NC(=O)CSc3nnc4c5ccccc5n(C)c4n3)SC2)cc1	0.0	u	-72.0*	u	11.5%	-0.3
CN(CC(=O)Nc1c(Cl)cccc1Cl)C(=O)C1CSC2(C)CCC(=O)N12 (configuration not stated)	0.0	4.5	6.8	-7.2	-6.9%	0.4
c1ccc2c(c1)ncc1cccn12	0.3	8.2	3.6	3.6	-3.1%[38.3 µM]	1.1
COc1ccc(N2CCN(Cc3cc4c(cc3O)CCC4)CC2)cc1	0.2	-65.5*	u	-13.6	5.5%[38.3 µM]	0.5
CC[C@]12c3[nH]c4cc(-c5ccco5)ccc4c3CCN1C(=O)[C@@H](CC(=O)NCCCN(C)C)C[C@@H]2C(=O)N1CCN(C(=O)c2ccco2)CC1	-1.2	-3.6	-6.1	-6.9	0.2%	-0.8
O=C(NCc1cc(Cl)cc(Cl)c1)c1csc([C@@H]2O[C@H](CO)[C@H](O)[C@H](O)[C@H]2O)n1	-0.4	0.6	-6.5	-5.4	1.3%	-5.9
CCCn1c(O)c(N=NC(=O)CNC(=O)c2cccnc2)c2ccccc21	-0.4	2.9	1.2	-13.0	2.6%	-7.2
O=C(N/N=C/c1ccccn1)c1cc(-c2ccc(Br)cc2)nc2ccccc12	0.3	-1.1	1.9	-5.9	-1.2%	-4.9
CCOc1ccc(C(=O)NCCCCNC(=O)c2ccc(OCC)cc2)cc1	-0.8	-0.7	4.1	2.5	2.3%	-0.2
NC(=O)CSc1nnc2n(N)c(=O)c3ccccc3n12	1.1	-7.7	2.4	-9.2	0.5%	-16.5
CCOc1ccc(N2C(=O)CC(N3CCN(C(=O)c4ccco4)CC3)C2=O)cc1 (configuration not stated)	0.3	0.1	-0.8	-7.6	-0.3%	-1.8
Cc1ccnc(NC(=O)C2CCN(S(=O)(=O)c3c(C)c(C)cc(C)c3C)CC2)c1	1.1	-6.7	-1.6	-4.1	u	-1.0
Cc1cc(Nc2ccccc2)c2c([N+](=O)[O-])cc(C)c(C)c2n1	0.8	u	u	18.4	16.0%	-1.3
CC(C)CN(CC(C)C)c1nnc(N)s1	1.6	4.8	0.9	1.7	0.0%	-2.0
COc1ccc(C(=O)CN2C(=O)NC3(CCCc4ccccc43)C2=O)c(OC)c1 (configuration not stated)	0.9	18.8	4.2	-12.3	18.1%	-3.5
CCOc1ccc(CC(=O)OCc2cc(=O)n3cc(Br)ccc3n2)cc1	-1.2	8.2	1.4	2.8	2.8%	0.8
